Screens (PubChem BioAssay)
VDR inh: vitamin D3 receptor (human) inhibition; P11473; VDR-SRC2-3 peptide fluorescence polarization, 2 h; Potency, µM, for the others: max response, negative = inhibition, most hits filed as inhibitors; 400,000 tested, 0.93% active; active = well fitted inhibition curve with a large enough effect; inconclusive = small, poorly fitted or top-dose-only effect, or another doubt; inactive = no such curve, though single readings can be large or run the other way; note: series mostly up to about 120 µM
Target sequence (P11473 whole entry, looked up): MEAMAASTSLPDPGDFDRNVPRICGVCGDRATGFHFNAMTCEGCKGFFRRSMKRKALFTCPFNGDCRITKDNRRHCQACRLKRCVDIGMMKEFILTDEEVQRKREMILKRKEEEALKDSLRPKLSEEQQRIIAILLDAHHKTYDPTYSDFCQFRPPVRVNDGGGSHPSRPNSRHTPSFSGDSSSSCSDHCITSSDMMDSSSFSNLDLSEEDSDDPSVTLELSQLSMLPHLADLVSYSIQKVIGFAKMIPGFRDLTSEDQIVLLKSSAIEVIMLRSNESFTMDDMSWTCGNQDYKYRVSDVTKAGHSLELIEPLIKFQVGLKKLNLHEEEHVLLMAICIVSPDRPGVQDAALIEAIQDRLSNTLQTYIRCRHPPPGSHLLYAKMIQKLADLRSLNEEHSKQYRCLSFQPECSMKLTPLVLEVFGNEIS
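After 23 nl compound addition and a short centrifugation, plates sat for 2 hours at ambient temperature; polarization of fluorescence then indicated loss of VDR binding to peptide SRC2-3.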
Numbers without * were called inactive; & = joins results of further samples. % is set by controls: 0 for no effect and ±100 for the full control effect; potency is the fitted concentration of half-maximal effect. An excerpt. The share of hits here may be higher or lower than overall.

`CCN(CC)c1nc(C#N)nc(N2CCOCC2)n1` gave VDR inh -13.0%.
CCCCNC(=O)c1ccc(NS(=O)(=O)c2ccc3[nH]c(=O)[nH]c3c2)cc1 was read as VDR inh 8.9%.
CCC(C)(C)NC(=O)C(c1cccn1C)N(C(=O)Cn1nnc2ccccc21)c1ccc(OC)cc1 (stereo not drawn) was read as VDR inh -0.4%.
CCCN1Cc2cccc(C(=O)N3CCN(c4ccc(F)cc4)CC3)c2C1=O was read as VDR inh -10.8%.
`COc1ccc(CNC(=O)c2noc(C)c2[N+](=O)[O-])cc1` gave VDR inh 14.2%.
Screening CC1CCCC(NC(=O)COC(=O)c2ccccc2Sc2ccccc2C#N)C1C (stereo not drawn) returned VDR inh -14.1%.
COc1ccc(CNC(=O)COC(=O)c2cccc(S(=O)(=O)N3CCOCC3)c2)cc1 was read as VDR inh -2.0%.
`COc1ccccc1N1C(=O)[C@@H]2[C@H](C1=O)[C@H](C(=O)c1ccc(OC(C)=O)cc1)N1N=CC=C[C@@H]21` gave VDR inh -2.3%.
CCNc1ncnc2c1cnn2C1CCCCO1 (stereo not drawn) was read as VDR inh -15.1%.
For Cc1cc(F)ccc1NCc1ccncc1 the results were VDR inh -4.7%.
CC(C)C(NS(=O)(=O)c1cccc2nsnc12)C(=O)NCc1ccc2c(c1)OCO2 (stereo not drawn) was read as VDR inh -19.0%.
For O=C(NCCCN1CCCC1)c1ccc2c(Cl)c3c(nc2c1)CCCC3 the results were VDR inh -16.5%.
COc1ccccc1NC(=O)C(=O)Nc1ccc2c(c1)N(C(=O)C1CC1)CCC2 was read as VDR inh -2.0%.
`Cc1cn2c(=O)cc(COc3ccccc3NC(=O)c3ccc(C(C)(C)C)cc3)nc2s1` gave VDR inh 5.5%.
COC(=O)Cc1cc(=O)n2[nH]c(C)c(-c3ccccc3)c2n1 was read as VDR inh 5.0%.
`CCCCNC(=O)CSc1nc2cc3c(cc2c(=O)n1CCCC(=O)NCCc1ccc(OC)c(OC)c1)OCO3` gave VDR inh 8.9%&10.7%.
`CC(C)NC(=O)c1ccc(NC(=O)CC2SC(N3CCCCC3)=NC2=O)cc1` (stereo not drawn) gave VDR inh -16.5%.
COc1ccc(-c2ocnc2C(=O)N2CCN(C(c3ccccc3)c3ccccc3)CC2)cc1 was read as VDR inh -0.6%.
Cc1cccc2cc3c(NC(=O)C(C)C)nn(C)c3nc12 was read as VDR inh 9.4%.
Cc1ccc(C(O)Cn2cc([N+](=O)[O-])nc2C)cc1 (stereo not drawn) was read as VDR inh -8.7%.
Screening O=C(c1cccc([N+](=O)[O-])c1)N(c1ccccn1)c1ccccn1 returned VDR inh -2.5%.
For Cc1ccc(S(=O)(=O)N(CCc2ccccc2)CC(=O)Nc2ccc(Br)cc2)cc1 the results were VDR inh 13.3%.
CCN1/C(=C\c2ccc3ccccc3[n+]2CC)Sc2cc(C)ccc21 was read as VDR inh -20.8%.
For O=C(Cn1cnc([N+](=O)[O-])n1)N/N=C/c1cccc2ccccc12 the results were VDR inh 2.2%.
For CCOC(=O)c1sc2ncn(CC(=O)Nc3ccc(OCC)cc3)c(=O)c2c1C the results were VDR inh -1.7%.
`Cc1[nH]n2c(=O)cc(C(C)(C)C)nc2c1-c1ccccc1` gave VDR inh 9.1%.
COc1ccc(-c2cccc(NS(=O)(=O)c3cc([N+](=O)[O-])ccc3C)c2)nn1 was read as VDR inh -11.3%.
For CCN(CC)S(=O)(=O)c1ccc(N2CCOCC2)c(NS(=O)(=O)c2ccc(C(C)C)cc2)c1 the results were VDR inh 35.5µM*.
`CCOC(=O)c1sc(NC(=O)Nc2ccccc2F)nc1C` gave VDR inh inconclusive.
For Cc1c(C(=O)OCc2ccccc2)[nH]c2c1C(=O)CC(c1ccc(Cl)cc1)C2 (stereo not drawn) the results were VDR inh -15.4%.
Screening O=C(/C=C/c1ccco1)Oc1cccc2cccnc12 returned VDR inh -3.6%.
`Cc1nc2ccccn2c1C(=O)NC1CCCCC1` gave VDR inh -4.4%.
CCC(CC)c1nn2c(=O)cc(COc3ccc(NC(=O)c4cccc(C)c4)cc3)nc2s1 was read as VDR inh 0.1%.
CC(C)OCCCNC(=O)c1ccc(NC(=O)C2CCCO2)cc1 (stereo not drawn) was read as VDR inh -10.2%.
For COc1ccc(NC(=O)CSc2nnc(Cn3c(=O)sc4ccccc43)n2C)c(OC)c1 the results were VDR inh -9.7%.
For CCOc1ccc(NC(=O)Cn2c(=O)n(-c3ccccc3)c(=O)c3c4c(sc32)CCCC4)cc1 the results were VDR inh -7.1%.
FC(F)(F)c1ccccc1-c1cc(NCCN2CCOCC2)ncn1 was read as VDR inh 2.1%.
`COc1ccccc1NC1CCCCC1NS(=O)(=O)c1ccc(C)cc1` (stereo not drawn) gave VDR inh 2.6%.
CCN1CCCC1CNC(=O)c1cc(S(=O)(=O)CC)c(N)cc1OC (stereo not drawn) was read as VDR inh 16.9%.
Screening CC(C)(C)c1ccc(/C=N/NC(=O)C(=O)NCCCN2CCOCC2)cc1 returned VDR inh -7.7%.
CC(NC(=S)N1CCN(c2ccccc2)CC1)c1ccccc1 (stereo not drawn) was read as VDR inh -3.0%.
CCCCN(C(=O)CSCc1ccc(C)cc1)c1c(N)n(CCC)c(=O)[nH]c1=O was read as VDR inh -6.4%.
COc1ccc(NC(=O)CN2C(=O)NC3(CCCc4ccccc43)C2=O)c(OC)c1 (stereo not drawn) was read as VDR inh -8.2%.
For Cc1ccc(-c2sc(-c3cccnc3)nc2CC(=O)O)cc1 the results were VDR inh -20.7%.
Screening COc1ccc(-c2csc3ncnc(N4CCN(S(=O)(=O)c5ccc(Cl)s5)CC4)c23)cc1 returned VDR inh 24.0%.
For COc1ccc(C(C(=O)NC2CCCC2)N(C(=O)c2ccoc2C)c2cc(C)cc(C)c2)cc1 (stereo not drawn) the results were VDR inh 3.0%.
Screening CC(C)CNC(=O)Nc1ccc(F)c(Cl)c1 returned VDR inh -13.3%.
For Cc1cc2nc3n(c2cc1C)CC1CC(C(=O)NCCc2cccs2)N(C)C31 (stereo not drawn) the results were VDR inh 1.7%.

Three entries out of the list, sorted by molecular weight, high to low:
For Cc1cc2nc3n(c2cc1C)CC1CC(C(=O)NCCc2cccs2)N(C)C31 (stereo not drawn) the results were VDR inh 1.7%.
FC(F)(F)c1ccccc1-c1cc(NCCN2CCOCC2)ncn1 was read as VDR inh 2.1%.
For Cc1ccc(-c2sc(-c3cccnc3)nc2CC(=O)O)cc1 the results were VDR inh -20.7%.

The listing continues.
Screening COc1cc(OC)c(NC(=O)Nc2ccc(OC)c(OC)c2)cc1Cl returned VDR inh 7.4%.
COc1ccc(C(=O)NCC(=O)Nc2ccc(F)cc2)cc1OC was read as VDR inh 14.3%.
`CCCCC` gave VDR inh -2.0%.
Cc1c(Cl)c([N+](=O)[O-])nn1CCCC(=O)Nc1ccc(Cl)cc1Cl was read as VDR inh 0.7%.
O=C(COC(=O)c1ccccc1O)Nc1cccc(S(=O)(=O)N2CCCC2)c1 was read as VDR inh 0.8%.
`CSCCCNC(=O)c1ccc(OC2CCN(CCc3ccccc3)CC2)cc1` gave VDR inh -14.3%.
O=C(O)C1CCCCC1C(=O)Nc1ccc(F)cc1F (stereo not drawn) was read as VDR inh 13.3%.
`CCc1ccc(CNC(=O)c2ccc(Cn3c(=O)c4cccn4c4cccnc43)cc2)cc1` gave VDR inh 8.1%.
`CCc1ccc(C(=O)COC(=O)c2cnccn2)cc1` gave VDR inh -4.2%.
`CCOC(=O)C1CCN(C(=O)COC(=O)c2ccc(=O)n(Cc3ccccc3)n2)CC1` gave VDR inh -16.9%.
`COc1ccc(OC)c(CNC(=O)C2CCCN(c3nc4ccccc4o3)C2)c1` (stereo not drawn) gave VDR inh 8.6%.
`Nc1cccn2c(-c3ccc(Cl)cc3)cnc12` gave VDR inh -8.4%.
For Cc1ccc(NC2(c3nnnn3-c3c(C)cccc3C)CCCCC2)cc1 the results were VDR inh -11.2%.
Cc1cccc(C)c1NC(=O)CCCCCNS(=O)(=O)c1ccccc1 was read as VDR inh -6.2%.
`COc1ccc(-c2cc3ccccc3n2CC(O)CNC(CO)(CO)CO)cc1` (stereo not drawn) gave VDR inh -12.7%.
For COc1cc(C2N(c3cccc(Cl)c3)C(=O)C3CCCN32)cc(OC)c1OC (stereo not drawn) the results were VDR inh -20.6%.
C/C=C/C(=O)N1c2ccc(C)cc2C(C)=CC1(C)C was read as VDR inh 4.6%.
`NC(=O)CSc1nnc(-c2cc(-c3cccs3)nc3ccccc23)o1` gave VDR inh -1.4%.
`CCC1CN(C(=O)N2CCC(C(=O)NCc3cc(OC)ccc3OC)CC2)c2ccccc2O1` (stereo not drawn) gave VDR inh 13.7%.
Screening NC(=O)CC[C@@H]1NC(=O)[C@H](CO)NC(=O)c2cc([N+](=O)[O-])cc(I)c2NCCC[C@@H](C(N)=O)NC(=O)[C@H](Cc2ccc(O)cc2)NC1=O returned VDR inh -2.5%.
Screening Cc1nc(N2CCCCC2)nc(N2CCCCC2)c1C=O returned VDR inh -7.7%.
CC(C)NC(=O)N1CCCC2(CCN(C(=O)c3cccn3C)CC2)C1 was read as VDR inh 0.7%.
For O=[N+]([O-])c1cc(Cl)cc(/C=N/Nc2nc3ccccc3s2)c1O the results were VDR inh -20.2%.
Screening COc1ccc(OC)c(NC(=S)NN2CCOCC2)c1 returned VDR inh 11.6%.
Screening COc1ccc(Nc2nc(N)nc(CSC(=S)N3CCN(C)CC3)n2)cc1 returned VDR inh -11.9%.
`O=C(CCCN1CCC(O)(c2cccc(C(F)(F)F)c2)CC1)c1ccc(F)cc1` gave VDR inh -17.8%&-10.6%&-2.0%.
`O=C(COC(=O)c1cc(S(=O)(=O)N2CCOCC2)ccc1F)c1ccc[nH]1` gave VDR inh -7.1%.
`CCCNC(=O)c1ccc(COc2ccc(C(C)(C)C)cc2)o1` gave VDR inh -9.4%.
Screening CN(C(=O)c1cc2ccccc2oc1=O)C1(C)CCS(=O)(=O)C1 (stereo not drawn) returned VDR inh -0.6%.
`Cc1ccc(-n2c(SCC3CCCCO3)nnc2-c2ccco2)cc1` (stereo not drawn) gave VDR inh 12.1%.
Screening CCC(=O)C1CCCN(C(=O)c2ccc3nc(-c4cccc(OC)c4)oc3c2)C1 (stereo not drawn) returned VDR inh -8.8%.
For CS(=O)(=O)N1CCC(C(=O)Nc2c(F)cccc2F)CC1 the results were VDR inh -11.1%.
For O=S1(=O)CCC(N=Cc2ccc(-c3ccc(Cl)cc3)o2)C1 (stereo not drawn) the results were VDR inh 2.8%.
For CCCCN(CC)C(=O)Cn1cc2c(n1)-c1c(oc(C(=O)N3CCCC3)c1C)CC2 the results were VDR inh 2.7%.
For Cc1cc(Cl)c(S(=O)(=O)NC2CCCC2)cc1OCC(=O)NC1CCCCC1 the results were VDR inh -4.7%.
For Cc1ccc(-n2c(-c3ccc(Cl)cc3)c[n+]3c2CCC3)cc1 the results were VDR inh 16.8%.
Cc1ccc(NC(=O)CSc2nc(C)c(C)c(C)n2)cc1S(=O)(=O)N1CCOCC1 was read as VDR inh -8.3%.
Cc1ccccc1NC(=O)CSc1nnc(-c2cccs2)o1 was read as VDR inh 2.7%.
O=C(Cn1c(=O)[nH]n(-c2ccccc2)c1=O)N1CCCc2ccccc21 was read as VDR inh -21.2%.
CCOC(=O)c1c(NC(=O)CSc2nc3ccccc3s2)sc(C)c1C was read as VDR inh 3.6%.
COc1ccc(C(=O)NC2CC(C)(C)NC(C)(C)C2)cc1OC was read as VDR inh -8.2%.
For Cc1ccc(S(=O)(=O)N(C)CCCC(=O)NC(C)(C)CO)cc1 the results were VDR inh 11.6%.
For Brc1c(C[n+]2ccccc2)nc2ccccn12 the results were VDR inh -12.8%.
For O=S(=O)(Nc1cccc(C(F)(F)F)c1)c1ccc(NS(=O)(=O)c2ccc3c(c2)OCCO3)cc1 the results were VDR inh -11.6%.
Screening CCc1c(O)nc(SCC(=O)Nc2cc(C)on2)n(-c2ccccc2)c1=O returned VDR inh -6.5%.
For CCCCN(C)CCCNC(=O)Cn1ncc2c3ccccc3n(Cc3ccccc3)c2c1=O the results were VDR inh 18.0%.
For C=CCOC(=O)C1=C[C@@H](c2ccccc2)[C@H](CCCO)[C@@H](OCC)O1 the results were VDR inh -10.5%.
For O=C(NCCc1ccc(C(F)(F)F)cc1)C1CC(=O)N(c2ccc3c(c2)OCCO3)C1 (stereo not drawn) the results were VDR inh 15.1%.
For O=C(NC(=S)Nc1ccc(NC(=O)c2cccs2)cc1)c1ccco1 the results were VDR inh inconclusive.
For Cc1ccc(C)c(N2CCN(c3ncnc4c3nc3n4CCCCC3)CC2)c1 the results were VDR inh 5.1%.
O=c1c(Cc2ccc(Cl)cc2)c(O)ccn1Cc1cccc(Cl)c1 was read as VDR inh 0.9%.

Compounds listed so far with two or more sulfur atoms (eleven):
CC(C)C(NS(=O)(=O)c1cccc2nsnc12)C(=O)NCc1ccc2c(c1)OCO2 (stereo not drawn) was read as VDR inh -19.0%.
For CCN(CC)S(=O)(=O)c1ccc(N2CCOCC2)c(NS(=O)(=O)c2ccc(C(C)C)cc2)c1 the results were VDR inh 35.5µM*.
For COc1ccc(NC(=O)CSc2nnc(Cn3c(=O)sc4ccccc43)n2C)c(OC)c1 the results were VDR inh -9.7%.
Screening COc1ccc(-c2csc3ncnc(N4CCN(S(=O)(=O)c5ccc(Cl)s5)CC4)c23)cc1 returned VDR inh 24.0%.
`NC(=O)CSc1nnc(-c2cc(-c3cccs3)nc3ccccc23)o1` gave VDR inh -1.4%.
Screening COc1ccc(Nc2nc(N)nc(CSC(=S)N3CCN(C)CC3)n2)cc1 returned VDR inh -11.9%.
Cc1ccc(NC(=O)CSc2nc(C)c(C)c(C)n2)cc1S(=O)(=O)N1CCOCC1 was read as VDR inh -8.3%.
Cc1ccccc1NC(=O)CSc1nnc(-c2cccs2)o1 was read as VDR inh 2.7%.
CCOC(=O)c1c(NC(=O)CSc2nc3ccccc3s2)sc(C)c1C was read as VDR inh 3.6%.
For O=S(=O)(Nc1cccc(C(F)(F)F)c1)c1ccc(NS(=O)(=O)c2ccc3c(c2)OCCO3)cc1 the results were VDR inh -11.6%.
For O=C(NC(=S)Nc1ccc(NC(=O)c2cccs2)cc1)c1ccco1 the results were VDR inh inconclusive.
